Compound activity deposited in PubChem BioAssay by several laboratories.
RGS16-Gao HTS: modulators of RGS16 binding to Galphao, primary screen, biochemical, human proteins, multiplexed bead flow cytometry. Regulator of G-protein signaling 16 (Homo sapiens) + Guanine nucleotide-binding protein …. bead-based flow cytometry RGS16-Galphao binding, fluorescence; actives lie on both sides. binding response (% of control), % at 10 µM. 220,000 compounds, 0.38% hits. AID 1441, 2008;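 active = below 25% or above 175%, edge rows of some plates excepted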;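 note: Galphao activated by GDP with aluminum fluoride before binding; 100% = wells without compound and 0% = beads without RGS; some results beyond the cut were filed as inactive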
Target sequence (O15492 whole entry, looked up): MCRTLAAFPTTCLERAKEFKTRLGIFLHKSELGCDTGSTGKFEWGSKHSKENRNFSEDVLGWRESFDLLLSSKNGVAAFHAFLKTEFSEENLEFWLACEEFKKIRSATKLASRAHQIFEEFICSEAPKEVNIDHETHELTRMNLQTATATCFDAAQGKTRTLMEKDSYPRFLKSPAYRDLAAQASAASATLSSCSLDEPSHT
Target sequence (P09471 whole entry, looked up): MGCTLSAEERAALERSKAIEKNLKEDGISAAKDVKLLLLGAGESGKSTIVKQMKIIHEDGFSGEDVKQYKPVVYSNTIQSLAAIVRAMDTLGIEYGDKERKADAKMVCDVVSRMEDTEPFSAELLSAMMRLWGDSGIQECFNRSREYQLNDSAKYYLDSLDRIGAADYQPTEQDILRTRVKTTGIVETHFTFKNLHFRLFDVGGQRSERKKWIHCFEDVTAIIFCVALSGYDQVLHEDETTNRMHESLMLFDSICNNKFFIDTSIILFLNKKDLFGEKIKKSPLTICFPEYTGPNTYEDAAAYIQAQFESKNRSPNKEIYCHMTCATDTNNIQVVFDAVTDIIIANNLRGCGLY
Insulin prom inh: inhibitors of insulin promoter-driven GFP, primary screen, imaging, TRM-6 cells (human fetal islet line), eGFP reporter, cell count; reporter expression induced with tamoxifen; inhibition, % at 2 µM; 130,000 compounds, 0.9% hits;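 active = inhibition above the mean plus 3 SD, with well images judged a real hit on visual review, cut at about 60% in these data, passing the limit was not always enough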
HSV augment: enhancers of HSV replication in host cells, fold increase, host cell viability; 220,000 compounds, 0.005% hits; HSV replication augmentation in cells; maximum fold increase; AID 1956, 2009;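 active = peak rise of 1.5-fold or more in the series; tested in PC3 cells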;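 note: first round at 10 µM; read as green reporter fluorescence; hits show the peak of a series up to 25 µM; 1 = signal of infected wells without compound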
PKD1 inh: inhibitors of human PKD1 kinase, biochemical, fluorescence polarization; Serine/threonine-protein kinase D1 (Homo sapiens), Q15139; PKD1 kinase fluorescence polarization assay; inhibition, %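 (about 10 µM by stock and volumes)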; 200,000 compounds, 0.056% hits; AID 797, 2007;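 active = inhibition of 50% or more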;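 note: controls were vehicle for no effect and a reference inhibitor for full effect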
GALR2 agonist: GALR2 receptor agonists, primary screen, cell-based. 140,000 compounds, 0.48% hits. Galanin receptor type 2 (Homo sapiens), O43603. activation, %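 (tested at 5 µM)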. GALR2-expressing cells, agonist activation read-out;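 active = above mean plus 3 SD of all compounds, about 5% in these data, not always enough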;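 note: 0% = vehicle buffer wells and 100% = reference agonist at full effect; tested in CHO reporter cells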
Target sequence (O43603 whole entry, looked up): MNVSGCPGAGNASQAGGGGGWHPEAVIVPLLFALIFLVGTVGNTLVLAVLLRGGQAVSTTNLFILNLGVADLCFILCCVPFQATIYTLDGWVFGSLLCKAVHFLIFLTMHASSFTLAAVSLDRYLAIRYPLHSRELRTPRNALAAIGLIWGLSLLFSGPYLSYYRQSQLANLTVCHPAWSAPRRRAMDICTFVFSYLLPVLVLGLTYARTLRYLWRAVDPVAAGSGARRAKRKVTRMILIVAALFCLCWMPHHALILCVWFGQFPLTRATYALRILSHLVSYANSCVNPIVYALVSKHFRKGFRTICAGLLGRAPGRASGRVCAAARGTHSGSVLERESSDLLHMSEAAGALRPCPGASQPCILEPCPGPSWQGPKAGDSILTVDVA
Insulin prom inh cell count: further read-out of Insulin prom inh, marked with its call; normalized cell count, %; measured here: cell count, toxicity; reference of the scale not given here;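 cells exposed to compound for 48 h; stained nuclei by imaging scaled within each plate; lower means fewer cells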
HSV augment primary fold: further read-out of HSV augment, marked with its call; fold increase; compound at 10 µM; measured here: primary screen fold increase 10 uM; tested in PC3 cells;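 GFP signal in the first replicate; 1 = infected wells without compound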
Active calls of the source: *; i = inactive; · = not tested or not shown.

compound	RGS16-Gao HTS	Insulin prom inh	Insulin prom inh cell count	HSV augment	HSV augment primary fold	PKD1 inh	GALR2 agonist
N/C(=N\OC(=O)COc1ccc([N+](=O)[O-])cc1)c1cccnc1	97.5	-5.9	67.0	i	0.99	-1.8	·
CCc1c(C)nc2cc(-c3ccc(OC)cc3)[nH]n2c1=O	96.2	-73.9	88.8	i	0.84	-0.7	-1.2
Cc1cc(OCC(=O)N2CCOCC2)ccc1NC(=O)C1CCCCC1	104.4	28.1	57.2	i	1.05	-7.8	-1.0
COc1ccc(/C=N/NC(=O)/C(=C/c2ccccc2)CCO)cc1	101.4	·	·	i	0.94	2.7	-0.4
Cc1cc(N)nc2nc(C(F)(F)F)nn12	99.7	i	57.4	i	1.05	0.5	·
Cc1ccccc1N=C1c2ccccc2C(=O)C1[N+](=O)[O-] (stereo not given)	96.9	·	·	i	1	0.6	·
O=C(NCC(c1ccco1)N1CCCCC1)c1ccc(OCc2ccccc2)cc1 (stereo not given)	92.3	·	·	i	1.08	2.1	·
COc1ccc(CC(=O)Nc2ccc(C(N)=O)cc2)cc1	102.5	·	·	i	0.97	·	·
COc1cc(C(=O)NCc2ccc3[nH]c(C)cc3c2)cc(OC)c1OC	108.9	5.6	53.1	i	1.09	4.9	·
CCNC(=O)Oc1ccc[nH]c1=O	101.8	·	·	i	1.1	·	·

(next part)
compound	RGS16-Gao HTS	Insulin prom inh	Insulin prom inh cell count	HSV augment	HSV augment primary fold	PKD1 inh	GALR2 agonist
Cc1cc(Nc2ccccc2)nc(NCc2ccccc2)n1	97.2	·	·	i	0.75	28.1	-0.7
COCCNc1ccc(N2C(=O)C3CCCCC3C2=O)cc1[N+](=O)[O-] (stereo not given)	98.8	·	·	i	1.05	3.8	·
Cc1ccc(N2C(N)=C(C#N)C(c3ccsc3)C3=C2CC(C)(C)CC3=O)cc1 (stereo not given)	101.0	-65.7	142.7	i	0.89	-3.3	-2.9
COC(=O)c1c(-c2cccs2)csc1NC(=O)CN1CCOCC1	99.5	22.2	76.6	i	0.82	-3.6	0.3
COCc1[nH]c(=S)[nH]c(=O)c1C	102.1	·	·	i	1.24	·	·
Cc1ccccc1NC(=O)Cc1nnc(NC(=O)Nc2ccccc2F)s1	102.4	·	·	i	0.86	·	·
Cc1ccc(C(=O)O)cc1NC(=S)NC(=O)Cc1ccccc1	96.3	·	·	i	1.03	-7.7	-2.5
c1cncc(CSc2nnc3ccc(-c4ccco4)nn23)c1	90.7	·	·	i	0.93	-3.0	·
CC1Cc2ccccc2N1C(=O)CSc1nnc(-c2ccc(S(=O)(=O)N3CCCC3)cc2)o1 (stereo not given)	101.4	·	·	i	0.92	-0.2	1.1
Cc1ccc(OC(=O)c2ccc3snnc3c2)cc1	97.1	10.0	150.8	·	·	5.0	-3.5

The results go on.
compound	RGS16-Gao HTS	Insulin prom inh	Insulin prom inh cell count	HSV augment	HSV augment primary fold	PKD1 inh	GALR2 agonist
CCN1CCC(Nc2ccnc3cc(Cl)ccc23)CC1	98.1	·	·	i	0.78	·	·
CCn1c2ccccc2c2cc(NC(=O)CN(C)CC(=O)Nc3ccc(N4CCOCC4)cc3)ccc21	111.0	·	·	i	0.88	-4.4	·
O=S(=O)(NCc1cn2ccccc2n1)c1cc(F)ccc1F	99.6	38.7	57.4	i	1.02	-0.4	-0.8
CC(=O)N/N=C/c1c(C)[nH]n(-c2ccccc2)c1=O	97.5	-14.3	151.7	i	1	-7.1	·
CCOC(=O)c1cnn(-c2nc(OCC)cc(OCC)n2)c1C	43.8	6.2	114.5	i	0.98	-9.0	-0.6
CCCCCCCC(=O)NC1=NC(=O)C(C)(C)S1	98.9	·	·	i	0.96	·	·
CC1CC(N(C(=O)c2ccco2)c2ccccc2)c2ccccc2N1C(=O)c1ccco1 (stereo not given)	99.1	-7.1	117.2	i	0.87	-6.5	-1.6
COCCCNC(=O)CCc1nc2cccnc2n1Cc1ccc(OC)cc1	103.7	-203.7	51.4	i	0.89	2.3	-1.6
O=C(COC(=O)CNC(=O)c1ccc(Br)cc1)NCCC1=CCCCC1	100.1	·	·	i	0.98	-5.3	·
COc1ccc(CNC(=O)CCNS(=O)(=O)c2ccc(C)cc2)cc1	93.5	6.9	76.6	i	0.94	-9.8	-3.4

(continued)
Second line of a record – RGS16-Gao HTS | Insulin prom inh | Insulin prom inh cell count | HSV augment | HSV augment primary fold | PKD1 inh | GALR2 agonist
Cc1ccc(N2C(N)=C(C#N)C(c3cc(CN4CCOCC4)cs3)C3=C2CC(C)(C)CC3=O)cc1 (stereo not given)
    100.2 | · | · | i | 0.91 | -4.9 | ·
COc1cc(NC(=O)COC(=O)c2n[nH]c3ccccc23)c(C)cc1[N+](=O)[O-]
    98.6 | · | · | i | 1 | 5.6 | ·
CCC(=O)N1CCc2cc(Br)cc(S(=O)(=O)CCC(=O)NCC3CCCO3)c21 (stereo not given)
    103.5 | -5.3 | 96.9 | · | · | -3.7 | -1.4
CC(=O)C1=C(O)C(=O)N(CCCn2ccnc2)C1c1ccc(Cl)cc1 (stereo not given)
    104.9 | -109.5 | 222.8 | i | 1.02 | -2.8 | ·
Cc1[nH]nc(N=CC2=C(O)CC(c3ccco3)CC2=O)c1-c1ccc(Cl)cc1 (stereo not given)
    103.2 | 0.0 | 127.7 | i | 0.98 | 9.1 | -1.2
CN(C(=O)CSc1ccccc1C(=O)O)C1CCCCC1
    113.8 | 26.7 | 131.8 | i | 0.88 | -2.2 | -2.6
O=C(Nc1nnc(-c2cccs2)o1)c1cc(-c2ccccc2)nc2ccccc12
    100.0 | -5.0 | 139.2 | · | · | -7.2 | -0.3
O=C(Cn1cc(/C=C\[N+](=O)[O-])c2ccccc21)Nc1ccccc1
    104.7 | · | · | i | 0.63 | · | ·
Cc1nc2cc(CO)ccc2s1
    103.5 | -45.5 | 83.9 | i | 0.91 | -26.1 | 0.2
CCOc1ccccc1NC(=O)C1CCCN(S(=O)(=O)c2cccc3nsnc23)C1 (stereo not given)
    84.3 | · | · | i | 0.73 | -0.8 | -1.8
O=C(COc1nncc2ccccc12)Nc1ccc(Br)cc1F
    102.2 | · | · | i | 1.03 | 3.9 | ·
COCc1cc(/C=N\NC(=O)c2ccc(Cl)cc2)ccc1OC
    114.8 | 11.1 | 140.5 | i | 0.98 | -2.0 | 0.4
Cc1cccc(-c2oc(C)c(C)[n+]2[O-])c1
    100.1 | 16.7 | 83.2 | i | 1.23 | -4.8 | -1.8
CCOC(=O)N1CCN(c2ccc(N3C(=O)CCCC3=O)cc2[N+](=O)[O-])CC1
    101.9 | -14.3 | 141.2 | i | 1.02 | 0.0 | ·
O=C1C2=C(C(c3ccccc3)=NCCN2)C(c2cccc([N+](=O)[O-])c2)N1c1ccccc1 (stereo not given)
    98.8 | · | · | i | 1.04 | -2.2 | ·
Cc1ccc2cccc(S(=O)(=O)Nc3c(C)n(C)n(-c4ccccc4)c3=O)c2n1
    106.2 | -22.2 | 74.6 | i | 0.98 | 0.1 | -0.4
Cc1nnsc1NC(=O)OCc1ccc(C(C)(C)C)cc1
    102.2 | -43.3 | 86.1 | i | 0.96 | -7.7 | -0.4
CC(=O)Nc1ccc(N(CC(O)Cn2c3ccccc3c3ccccc32)S(=O)(=O)c2ccc(C)cc2)cc1 (stereo not given)
    105.3 | -13.3 | 138.9 | i | 0.59 | -13.4 | 0.0
O=C(N=NC(=O)c1ccco1)c1ccc2c(O)n(N3C(=O)c4ccccc4C3=O)c(O)c2c1
    97.2 | 6.2 | 125.1 | i | 0.99 | -0.1 | -0.1
Cc1ccc(C)c(-c2nnc(OCC(=O)Nc3cc(C)on3)c3ccccc23)c1
    103.6 | -18.2 | 84.5 | i | 0.65 | -2.0 | -0.2

Ordered by molecular weight (ascending): some entries from above
Second line of a record – RGS16-Gao HTS | Insulin prom inh | Insulin prom inh cell count | HSV augment | HSV augment primary fold | PKD1 inh | GALR2 agonist
O=C(Cn1cc(/C=C\[N+](=O)[O-])c2ccccc21)Nc1ccccc1
    104.7 | · | · | i | 0.63 | · | ·
COCc1cc(/C=N\NC(=O)c2ccc(Cl)cc2)ccc1OC
    114.8 | 11.1 | 140.5 | i | 0.98 | -2.0 | 0.4
O=C1C2=C(C(c3ccccc3)=NCCN2)C(c2cccc([N+](=O)[O-])c2)N1c1ccccc1 (stereo not given)
    98.8 | · | · | i | 1.04 | -2.2 | ·

(more compounds)
Second line of a record – RGS16-Gao HTS | Insulin prom inh | Insulin prom inh cell count | HSV augment | HSV augment primary fold | PKD1 inh | GALR2 agonist
Cc1ccc(NC(=O)c2c3c(nc4ccccc24)CCC3)cc1S(=O)(=O)N(C)C
    94.9 | -13.3 | 98.2 | i | 0.9 | 1.3 | ·
CC(C)C[C@H](NC(=O)NCCC1=CCCCC1)C(=O)O
    99.3 | · | · | i | 0.93 | · | ·
COc1cc(NC(=O)Cn2nc(-c3ccc(F)cc3)ccc2=O)ccc1-n1cnnn1
    88.3 | -18.2 | 60.6 | i | 0.98 | -2.7 | ·
Cc1cccc(NCN2C(=O)C3C4C=CC(C4)C3C2=O)c1 (stereo not given)
    100.6 | -2.9 | 110.3 | i | 0.91 | -3.2 | 0.3
CC(=O)Nc1ccccc1/C=C/c1ccc2c(C)cc(C)c(O)c2n1
    101.5 | -23.5 | 77.1 | i | 1.1 | -5.9 | -0.6
COc1ccc(C(=O)Nc2ccc(Cl)cc2C(=O)N2CCCC(C)C2)cc1 (stereo not given)
    106.5 | 9.9 | 152.6 | i | 0.92 | -10.3 | -1.6
CCN(c1ccc(NC(=O)COC(=O)c2cccs2)cc1)C(C)C
    107.8 | 7.2 | 83.7 | i | 1 | -0.5 | -1.5
Cc1ccc(S(=O)(=O)N2CCN(c3nccnc3C#N)CC2)cc1
    106.3 | · | · | i | 1.08 | · | ·
CCOc1ccccc1-c1nc(-c2ccc(NC(=O)Cc3ccccc3OC)cc2)no1
    102.8 | 21.4 | 122.2 | i | 0.88 | 1.7 | -3.1
C=CCN1C(=O)C(Cc2cccc(Cl)c2)SC1=Nc1ccc(C(=O)O)cc1 (stereo not given)
    100.5 | · | · | i | 0.98 | 4.8 | ·
O=C(CSCc1ccc(Cl)c(Cl)c1)Nc1c[nH]c(=O)[nH]c1=O
    102.9 | 23.5 | 136.7 | i | 1.03 | -1.4 | -0.1
Cc1c(CCC(=O)O)c(=O)oc2cc3occ(-c4ccc(F)cc4)c3cc12
    102.8 | -12.5 | 94.0 | i | 1.01 | -4.0 | 4.2
Cc1ccccc1OCC(O)CN1CCN(CCN2C(=O)c3cccc4cccc(c34)C2=O)CC1 (stereo not given)
    103.8 | · | · | i | 0.84 | -3.7 | 0.9
CCCN(CCC)C(=O)CC(c1ccccc1)c1ccco1 (stereo not given)
    107.5 | · | · | i | 1.07 | · | ·

Compound profiles (already shown):
COc1cc(NC(=O)Cn2nc(-c3ccc(F)cc3)ccc2=O)ccc1-n1cnnn1 reads RGS16-Gao HTS = 88.3; Insulin prom inh = -18.2; Insulin prom inh cell count = 60.6; HSV augment = i; HSV augment primary fold = 0.98; PKD1 inh = -2.7; GALR2 agonist = ·
CC(C)C[C@H](NC(=O)NCCC1=CCCCC1)C(=O)O reads RGS16-Gao HTS = 99.3; Insulin prom inh = ·; Insulin prom inh cell count = ·; HSV augment = i; HSV augment primary fold = 0.93; PKD1 inh = ·; GALR2 agonist = ·
C=CCN1C(=O)C(Cc2cccc(Cl)c2)SC1=Nc1ccc(C(=O)O)cc1 (stereo not given) reads RGS16-Gao HTS = 100.5; Insulin prom inh = ·; Insulin prom inh cell count = ·; HSV augment = i; HSV augment primary fold = 0.98; PKD1 inh = 4.8; GALR2 agonist = ·
